Assay outcomes from PubChem BioAssay.
Luciferase inh: qHTS Assay for Inhibitors of Firefly Luciferase; AID 411, 2009; purified firefly luciferase, luminescence, 8 min; Luciferin 4-monooxygenase (Photinus pyralis), P08659; Potency, µM (highest dose often 57.1 µM), inactives show at the top dose activity change, negative = inhibition, actives largely listed as inhibitors; 2.2% of 72,000 active; further: potency means the concentration at half of the fitted maximal effect; on the % scale 0 is the no-effect control and ±100 the full control effect; nearly all actives have a fitted effect of over 40% in size
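Inhibition of light generation by firefly luciferase from ATP and luciferin was profiled with concentration-response curves per sample, ATP held at 10 uM within the enzyme's linear range. Plates were read by luminescence after an 8-minute ambient incubation.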
CRE-bla Fsk: Cell signaling CRE-BLA (Fsk stim); Potency, µM (series often up to 38.2 µM), for inactives: at the top dose activity change, negative = inhibition, most hits filed as activators; AID 662, 2007; 2.5% of 71,000 active; CHO CRE-bla reporter (cAMP response element driving beta-lactamase), forskolin EC10, beta-lactamase ratio; active means well fitted activation curve with a large enough effect in the signal ratio, with a control signal flat, not every such curve was filed as active; inconclusive means small, poorly fitted or top-dose-only effect, or effect the other way, or a change in a side signal; the % refers to the signal ratio; further: potency means the concentration at half of the fitted maximal effect; % of control where 0% means no effect
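qHTS titration format; CRE-bla CHO reporter; stimulus EC10 NKH 477, a water-soluble forskolin. Read: CCF4 460/530 nm ratio. Potency expressed as AC50 for activators or inhibitors.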
HBB splice mod: qHTS Assay for Modulators of Hemoglobin Beta Chain Splicing; HBB splicing reporter cell assay, activation; EGFP reporter with mutant IVS2-654 intron; response scale: normalised to 500 nM splice-correcting PNA; 0.06% of 65,000 active; Potency, µM (highest dose often 46.1 µM), inactives show at the highest dose activation, hits mostly activators; further: potency means the concentration at half of the fitted maximal effect; 0% is about no effect
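HeLa cells stably expressing EGFP interrupted by mutant beta-globin intron 2 (IVS2-654), 500/well in 2% FCS. Treated with compound for 2 days at 37C. Splicing correction scored as total well GFP intensity (488 nm excitation, 500-520 nm emission); 500 nM antisense PNA served as control.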
Tau fil binding: qHTS Assay for Tau Filament Binding | 2% of 71,000 active | AID 596, 2007 | recombinant tau filaments, thioflavin S fluorescence, 15 h; filaments grown with octadecylsulfate alongside compound | Potency, µM (top dose mostly 57.1 µM), for the others: at the highest dose activity change, negative = inhibition | Microtubule-associated protein tau (Homo sapiens), P10636;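 further: potency means the concentration at half of the fitted maximal effect; on the % scale 0 is the no-effect control and ±100 the full control effect; actives lower thioflavin S fluorescence by blocking filaments or displacing dye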
Target sequence (P10636 whole entry, looked up): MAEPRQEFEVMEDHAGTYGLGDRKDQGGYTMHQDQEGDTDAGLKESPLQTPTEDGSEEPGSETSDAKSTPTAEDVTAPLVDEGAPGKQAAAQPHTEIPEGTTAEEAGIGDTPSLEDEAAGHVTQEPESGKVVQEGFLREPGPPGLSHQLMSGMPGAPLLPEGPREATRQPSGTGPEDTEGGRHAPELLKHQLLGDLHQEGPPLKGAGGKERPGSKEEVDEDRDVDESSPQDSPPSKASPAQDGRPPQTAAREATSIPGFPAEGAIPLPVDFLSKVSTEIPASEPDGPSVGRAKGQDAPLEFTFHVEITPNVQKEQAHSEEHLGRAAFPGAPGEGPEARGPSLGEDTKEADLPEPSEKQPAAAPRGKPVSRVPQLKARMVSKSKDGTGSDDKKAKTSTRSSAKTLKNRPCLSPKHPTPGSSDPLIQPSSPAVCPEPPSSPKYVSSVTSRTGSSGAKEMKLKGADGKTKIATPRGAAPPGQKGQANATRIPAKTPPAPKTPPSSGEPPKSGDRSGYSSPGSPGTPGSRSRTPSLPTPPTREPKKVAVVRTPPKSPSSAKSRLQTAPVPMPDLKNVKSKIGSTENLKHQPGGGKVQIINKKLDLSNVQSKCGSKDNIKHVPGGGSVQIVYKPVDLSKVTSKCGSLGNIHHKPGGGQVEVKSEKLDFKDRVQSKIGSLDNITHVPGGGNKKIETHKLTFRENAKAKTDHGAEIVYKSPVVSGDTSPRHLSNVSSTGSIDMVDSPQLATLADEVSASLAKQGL
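ThS-based fibril read: tau 1 uM final, inducer ODS 30 uM final, 37 C for 15 h, ex 450/em 510 nm.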
ALOX15 inhib: qHTS Assay for Inhibitors of 15-hLO (15-human lipoxygenase); Polyunsaturated fatty acid lipoxygenase ALOX15 (Homo sapiens), P16050; purified 15hLO-1, xylenol orange hydroperoxide absorbance; Potency, µM (highest dose often 57.1 µM), for inactives: at the top dose activity change, negative = inhibition, usual class: inhibitors; 1.4% of 74,000 active; further: potency means the concentration at half of the fitted maximal effect; on the % scale 0 is the no-effect control and ±100 the full control effect; nearly all actives have a fitted effect of over 55% in size
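Hydroperoxide formed from arachidonic acid (50 uM) by purified human 15hLO-1 (40 nM) oxidizes ferrous iron, and the ferric-xylenol orange complex is read at 573 versus 405 nm. Compounds were preincubated 15 min; reaction ran 6 min at room temperature.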
ERK AVP block: qHTS Assay for Inhibitors of the ERK Signaling Pathway using a Homogeneous Screening Assay | HEK293-V1b, vasopressin-stimulated pERK AlphaScreen | Potency, µM (top dose mostly 57.5 µM), for the others: at the top dose activity, negative = inhibition, usual class: inhibitors | 0.99% of 72,000 active | AID 995, 2007; further: potency means the concentration at half of the fitted maximal effect; on the % scale 0 is the no-effect control and ±100 the full control effect; nearly all actives have a fitted effect of over 55% in size
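qHTS, compounds titrated on V1b-expressing HEK293 cells. Preincubation 30 min at 37C, vasopressin 25 nM for 5 min, lysis 10 min, bead incubation 5 hr at room temperature.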
UbGFP stabilizer: Ubiquitin-GFP Assay; 67,000 tested, under 10 active; Potency, µM (doses to about 45.9 µM), without a hit: at the highest dose activation (GFP accumulation), hits mostly activators; AID 526, 2006; Ubiquitin-GFP reporter cells, proteasome inhibition, GFP fluorescence; response scale: untreated = 0%, 10 µM MG-132 = 100%; active means well fitted activation curve with a large enough effect, not every such curve was filed as active; inconclusive means small, poorly fitted or top-dose-only effect, or another doubt; inactive means no such curve, though single readings can be large or run the other way; further: potency means the concentration at half of the fitted maximal effect
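U2OS cells stably expressing ubiquitin(G76V)-GFP, seeded overnight in 0.5% FBS medium, were exposed to compounds (qHTS, 46 uM to 2.9 nM) for 4 hr at 37 °C. GFP-positive cells were counted by laser cytometry (488 ex/515 em), normalized between basal and 10 uM MG-132.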
Pol III holo inh: qHTS Assay for Inhibitors of DNA Polymerase III Holoenzyme System. reconstituted DNA polymerase III holoenzyme replication, biochemical. Potency, µM (highest dose often 57.1 µM), without a hit: at the highest dose activity change, negative = inhibition. 0.25% of 71,000 active. AID 603, 2007; further: potency means the concentration at half of the fitted maximal effect; on the % scale 0 is the no-effect control and ±100 the full control effect
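Reconstituted *E. coli* holoenzyme (0.35 nM Pol III, 1 nM beta, 154 nM SSB, 2 nM primase) was preincubated with compound for 15 min at RT. Synthesis on 1.4 nM ssM13Gori ran 35 min, then was stopped with PicoGreen/EDTA and read as dsDNA fluorescence.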
Epigenetic mod: qHTS Assay for Epigenetic Modulators | 0.09% of 68,000 active | mouse C127i GFP locus derepression, cytometry, 30 h | Potency, µM (top dose mostly 46.1 µM), without a hit: at the top dose GFP derepression (activation); further: % of control where 0% means no effect
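Read-out is the number of GFP-positive cells, scored as fluorescent objects 20 to 120 um wide, reflecting derepression of a silenced CMV-GFP reporter in murine C127i cells after 30 h compound exposure at 37 C.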
HADH2 inh: qHTS Assay for Inhibitors of HADH2 (Hydroxyacyl-Coenzyme A Dehydrogenase, Type II). 3-hydroxyacyl-CoA dehydrogenase type-2 (Homo sapiens), Q99714. recombinant HADH2, NADH fluorescence, beta-hydroxybutyryl-CoA. Potency, µM (top dose mostly 57.1 µM), for inactives: top-dose activity change, negative = inhibition, hits mostly inhibitors. 3.4% of 73,000 active. AID 886, 2007; further: potency means the concentration at half of the fitted maximal effect; on the % scale 0 is the no-effect control and ±100 the full control effect; nearly all actives have a fitted effect of over 60% in size; many of its hits are not listed in these tables
Target sequence (Q99714 whole entry, looked up, one chain of several): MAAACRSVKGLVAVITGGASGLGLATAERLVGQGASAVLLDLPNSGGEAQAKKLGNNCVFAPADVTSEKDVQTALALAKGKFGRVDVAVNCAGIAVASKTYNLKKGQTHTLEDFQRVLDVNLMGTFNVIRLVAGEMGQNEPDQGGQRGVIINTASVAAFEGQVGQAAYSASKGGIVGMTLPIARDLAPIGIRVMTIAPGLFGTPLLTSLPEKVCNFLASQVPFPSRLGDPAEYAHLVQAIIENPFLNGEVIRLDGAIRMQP
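Buffer 100 mM Tris-HCl pH 9.0/0.01% Tween-20; HADH2 20 nM; NAD+ 1 mM; beta-hydroxybutyryl-CoA 90 uM (all final). 15 min cpd preincubation, RT.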
* marks the source's active call; other numbers are inactive results; i = inactive; ? = inconclusive; nt = no result given; [ ] = dose if it differs, or a comment. Unless noted, the call rests on the fitted dose curve; in most records, active means well fitted curve in the direction sought with a large enough effect; inconclusive means small, poorly fitted or top-dose-only effect, or another doubt; inactive means no such curve, though single readings can be large; an effect the other way counts as inactive or inconclusive. The list is partial; rates above refer to the full screens.

SMILES	Luciferase inh	CRE-bla Fsk	HBB splice mod	Tau fil binding	ALOX15 inhib	ERK AVP block	UbGFP stabilizer	Pol III holo inh	Epigenetic mod	HADH2 inh
O=C(CSc1ccc2nnc(-c3ccccn3)n2n1)NCC1CCCO1 (configuration not stated)	1.3%	?	-0.2%	-0.4%	9.7%	nt	4.5%	1.1%	nt	-24.1%
N#Cc1ccc(COc2ccc(CCO)cc2-n2nc3ccccc3n2)cc1	0.9%	?	-1.5%	157.2%	?	?	-5.2%	-2.8%	0.0%	-0.1%
C=CCN(C(=O)CSc1nc2[nH]ncc2c(=O)n1-c1ccccc1OC)c1ccccc1	0.5%	?	-0.2%[0.369 µM]	6.7%	1.0%	-21.7%	nt	-0.5%	0.0%	3.9%
O=C(Nc1ccccc1C(=O)NC(Cc1c[nH]c2ccccc12)C(=O)O)c1ccco1 (configuration not stated)	-1.5%	-6.6%	-1.7%	2.0%	-2.9%	-13.1%	8.1%	-2.1%	-1.8%	-6.5%
CCCNC(=O)c1c(N)n(-c2ccc3c(c2)OCO3)c2nc3ccccc3nc12	0.8%	0.316µM*	0.3%[57.5 µM]	13.9%	-0.5%	3.7%	-4.2%	-4.9%	5.9%	7.7%
COC(=O)CSc1nc(N)c(C#N)c(C(C)C)c1C#N	-0.4%	?	1.5%	5.3%	-7.5%	-19.8%	4.8%	-0.8%	-1.0%	-12.2%
Cc1cc(C)nc(N2CCC(C(=O)NC3CCCCCC3)CC2)n1	4.4%	-0.4%	nt	12.4%	11.8%	-8.9%	-2.7%	-4.9%	-0.9%	6.4%
Oc1c(C(c2cccs2)N2CCN(c3ccc(F)cc3)CC2)sc2ncnn12 (configuration not stated)	-0.2%	10.8%	-1.0%	7.3%	3.1%	nt	-13.7%	-0.2%	nt	-4.3%
c1ccc(CN2CCC3(CC2)SSC2(CCN(Cc4ccccc4)CC2)SS3)cc1	0.4%[11.4 µM]	-12.8%[7.6 µM]	4.3%[9.22 µM]	-6.5%[11.4 µM]	4.2%[11.4 µM]	2.9%[11.5 µM]	-4.1%[9.17 µM]	-9.5%[11.4 µM]	3.4%[9.22 µM]	?
CCCOC1(NC(=O)c2ccccc2)C(C)=CC(=O)C=C1C	0.0%	?	-1.3%	-0.7%	0.0%	-10.3%	0.0%	6.2%	-2.1%	?
O=C(Nc1nc(-c2ccccn2)cs1)C1CC1	-20.4%	3.6%	-0.7%	7.2%	23.7%	nt	6.7%	-6.1%	nt	-2.6%
CN1CCN(Cc2nc(N)nc(Nc3ccc4c(c3)OCCO4)n2)CC1	-3.2%	-5.4%	2.3%[57.5 µM]	3.0%	14.1%	6.3%	1.6%	-0.6%	-0.5%	0.7%

Next results follow:
SMILES	Luciferase inh	CRE-bla Fsk	HBB splice mod	Tau fil binding	ALOX15 inhib	ERK AVP block	UbGFP stabilizer	Pol III holo inh	Epigenetic mod	HADH2 inh
CCN(CC)CC(=O)Nc1ccc2c(c1)Nc1ccccc1CC2	-5.2%	?	5.3%[1.84 µM]	12.6µM*	-12.4%	5.0%	9.3%	1.1%	0.0%	1.3%
CCCCNC(=O)C1CCN(S(=O)(=O)c2cnc[nH]2)CC1	1.5%	6.6%	-3.2%	-6.3%	-4.6%	9.1%	-4.8%	-0.2%	3.2%	-4.6%
CCOC(=O)C1CCCN(c2nc3ccccc3nc2C(C#N)C(=O)OCC)C1 (configuration not stated)	2.7%	?	1.4%	?	-14.4%	-16.8%	-2.6%	-2.4%	-2.3%	3.0%
COc1ccccc1Nc1nc(N)nc(CN2CCCCCC2)n1	0.5%	4.9%	2.4%	-2.4%	-12.9%	?	8.5%	-1.2%	0.0%	5.6%
COCCCN1C(=O)c2[nH]nc(-c3cc(C)cc(C)c3O)c2C1c1ccc(O)c(OC)c1 (configuration not stated)	1.0%	10µM*	2.2%[57.5 µM]	11.6%	-17.1%	-22.0%	-1.7%	1.4%	0.0%	3.4%
Cc1nccc2[nH]c(=O)c(C(=O)NCCCN(C)C3CCCCC3)cc12	0.9%	-9.6%	-2.6%	25.0%	10.9%	18.2%	8.3%	-1.0%	1.2%	-2.4%
COC(=O)c1ccc(NC(=O)Nc2ccc(F)cc2)cc1	20µM*	?	-1.3%	3.2%	4.3%	?	-4.7%	-1.3%	-1.5%	16.8%
Cc1[nH]n2c(=O)c(C#N)c(-c3ccccc3)nc2c1-c1ccccc1	-2.4%	?	2.3%[0.369 µM]	-1.9%	-9.2%	1.0%	nt	0.7%	-2.6%	-3.2%
CC12CCC(=O)N1C(C(=O)O)Cc1c2[nH]c2ccccc12 (configuration not stated)	-0.8%	-7.9%	0.1%[57.5 µM]	-12.3%	-7.4%	12.5%	0.1%	0.3%	1.3%	14.8%
CN(C)/C=C/C(=O)c1nnn(C2CCCCC2)c1NC1CCCCC1	1.3%	?	0.7%[9.22 µM]	130.1%	-24.6%	-13.6%	-13.0%	-1.6%	0.0%	-19.2%
O=C(CN1CCN(C(=O)c2ccccc2)CC1)Nc1ncc(Br)cc1Br	0.8%	-9.6%	2.8%[57.5 µM]	5.9%	1.4%	5.5%	11.4%	-2.3%	2.2%	-15.0%
NC(=O)N/N=C1\CC[C@H](O)C[C@@H]1CC(=O)O	1.4%[11.4 µM]	2.8%[7.6 µM]	3.8%[9.22 µM]	3.8%[11.4 µM]	-1.2%[11.4 µM]	-6.8%[11.5 µM]	0.0%[9.17 µM]	-2.1%[11.4 µM]	2.3%[9.22 µM]	-1.1%[11.4 µM]

(continued)
SMILES	Luciferase inh	CRE-bla Fsk	HBB splice mod	Tau fil binding	ALOX15 inhib	ERK AVP block	UbGFP stabilizer	Pol III holo inh	Epigenetic mod	HADH2 inh
O=C(O)c1c(-c2c3ccc(=O)cc-3oc3cc(O)ccc23)cc2ccccc2c1-c1ccccc1	1.8%[11.4 µM]	8.5%[7.6 µM]	1.1%[9.22 µM]	17.8%[11.4 µM]	13.1%[11.4 µM]	-3.1%[11.5 µM]	-3.5%[9.17 µM]	-11.2%[11.4 µM]	-3.4%[9.22 µM]	2.6%[11.4 µM]
O=C(Nc1ccccc1C(F)(F)F)N1CCC(N2CCCCC2)CC1	-0.1%	-0.3%	0.2%	-8.0%	9.2%	-7.5%	6.5%	0.9%	-0.3%	2.5%
O=C(CCc1nc2ccccc2[nH]1)Nc1ccc2c(c1)OCO2	-4.3%	20.3%	-1.1%	12.6µM*	-16.9%	-3.3%	-11.2%	0.4%	6.3%	-6.8%
O=C1c2ccccc2C(=O)N1n1c(=O)[nH]c2ccccc2c1=O	2.0%	-4.5%	-0.7%	-5.2%	-0.3%	-5.1%	-8.5%	-3.6%	1.6%	2.0%
COc1ccccc1N1CCN(C(c2ccc(C)cc2)c2nnnn2C(C)C)CC1 (configuration not stated)	-0.1%	-4.5%	nt	-6.8%	-1.9%	-13.8%	8.0%	6.3%	1.0%	10.0%
Cc1n[nH]c(C)c1SCC(=O)Nc1ccc(F)cc1	-0.6%	-5.3%	-0.6%	5.6%	-2.7%	-5.6%	10.8%	-2.2%	2.1%	-21.1%
COCCNC(=O)C(C#N)c1nc2ccccc2nc1N1CCCCCC1 (configuration not stated)	0.3%	10µM*	4.8%[57.5 µM]	292.6%	?	-19.1%	-0.9%	-8.0%	0.0%	?
Cn1cnc2c1c(=O)n(Cc1ccc(F)cc1Cl)c(=O)n2C	1.2%	?	-0.4%	3.6%	-2.4%	?	5.6%	-2.1%	2.2%	11.3%
O=C(c1cccs1)c1ccc(-c2cccs2)s1	5.01µM*	?	2.0%[0.369 µM]	i	2.7%	80.6%[activator]	nt	5.1%	-2.1%	?
Cn1ncc(Br)c1C(=O)Nc1ccc(Cl)cn1	0.1%	-3.8%	-0.6%	0.5%	3.5%	23.6%	-4.0%	-4.0%	3.6%	10.0%
Cc1cc(C)c(C#N)c(SCC(=O)N(C)C2CCCCC2)n1	-2.6%	2.5%	-2.4%	14.1%	1.0%	4.1%	3.5%	-4.5%	0.0%	-6.4%
